StopGo reporter = FMDV 2A StopGo reporter, luciferase signal; human cells with a luciferase reporter of 2A StopGo recoding; control for the full effect not named in the record; 410,000 tested, 1.2% active; AID 1159524; Potency, µM (doses to about 57.9 µM), inactives show at the top dose signal change, negative = less light; active = well fitted falling curve with a large enough effect; inconclusive = small, poorly fitted or top-dose-only effect; inactive = no such curve, though single readings can be large or run the other way; tested in HEK293T cells; also: % is scaled to controls: 0 for no effect and ±100 for the full control effect; nearly all actives have a fitted effect of over 45% in size; luciferase light after 4 h
RE007 growth inh = less growth of the S. pombe RE007 Vpr strain | AID 651644 | 360,000 tested, 0.21% active | S. pombe RE007 Vpr strain, BacTiter-Glo ATP luminescence, 24 h; control for the full effect not named in the record | Potency, µM (highest dose often 92.2 µM), for the others: top-dose activity change, negative = less growth; active = well fitted falling curve with a large enough effect; inconclusive = small, poorly fitted or top-dose-only effect; inactive = no such curve, though single readings can be large or run the other way;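 also: % is scaled to controls: 0 for no effect and ±100 for the full control effect; nearly all actives have a fitted effect of over 50% in size; the assay follows cell death caused by Vpr and the record does not say whether a fall means rescue or toxicity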
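Fission yeast strain RE007, carrying one chromosomally integrated HIV-1 vpr copy, was seeded at OD 0.01 in PMG+AL medium with 23 nL pinned compound. After 24 h at 30 °C and 99% humidity, viability was read by BacTiter-Glo luminescence.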
LASV entry inh = Lassa virus entry inhibition | AID 540256 | Lassa virus pseudotype entry inhibition, cell reporter; control for the full effect not named in the record | 300,000 tested, 1.2% active | Potency, µM (titrated, usually from 37.9 µM), for inactives: at the top dose activity change, negative = inhibition, actives largely listed as inhibitors; active means well fitted inhibition curve with a large enough effect; inconclusive means small, poorly fitted or top-dose-only effect, or effect the other way; inactive means flat fitted curve, though single readings scatter; tested in HEK293 cells; also: % is scaled to controls: 0 for no effect and ±100 for the full control effect; nearly all actives have a fitted effect of over 50% in size; luciferase read-out
SARS PLpro yeast = SARS-CoV PLP inhibition in yeast; 330,000 tested, 0.19% active; Potency, µM (doses to about 32.9 µM), for inactives: top-dose activity, positive = growth rescue; AID 485353; S. cerevisiae expressing SARS-CoV PLpro, growth rescue; control for the full effect not named in the record; active means well fitted rising curve with a large enough effect; inconclusive means small, poorly fitted or top-dose-only effect; inactive means no such curve, though single readings can be large or run the other way; also: 0% is about no effect; nearly all actives have a fitted effect of over 55% in size; growth read by luminescence after 48 h
The depositor's hits bear a star; ? = inconclusive; . = no result given; & = joins results of further samples; [ ] = remark or other dose. Potency is read from the fitted curve at half-maximal effect.

SMILES	StopGo reporter	RE007 growth inh	LASV entry inh	SARS PLpro yeast
Cc1ccnc(NC(=O)c2ccc3c(c2)NC(=O)C(C)S3)c1 (stereo not drawn)	-46%	-5%	.	-8%
Cc1ccc(-c2cc(-c3ccc(C)cc3)[n+](-c3ccc(C(=O)[O-])cc3)c(-c3ccc(C)cc3)c2)cc1	0%	-14%	.	-13%
CN1CCCCC1CCN1c2ccccc2Sc2ccc(S(C)=O)cc21 (stereo not drawn)	-12%	10%[18.4 µM]	.	-4%&-1%
CN(C(=O)Cn1nnc(-c2ccc(F)cc2)n1)C1CCS(=O)(=O)C1 (stereo not drawn)	-14%	1%	.	-4%
C=C[C@@H]1c2ccccc2N(S(=O)(=O)c2ccc(C)cc2)[C@H](c2ccccc2C(F)(F)F)C1(C#N)C#N	?	-4%	.	4%
COC(=O)c1sc(S(=O)(=O)N2CCCCC2C)c(C(=O)OC)c1C (stereo not drawn)	2%	5%	.	-12%
COc1ccc(Cl)cc1NC(=O)c1noc2c1CCCC2	-3%	-19%	.	-1%
CC1(C)CC(=O)C2=C(C1)NC(=O)NC2c1ccccc1 (stereo not drawn)	3%	7%	.	0%
Cc1ccc(CNCC(=O)Nc2cccc(S(=O)(=O)NC3=NCCCCC3)c2)cc1	-10%	4%	.	1%
COc1ccccc1NC(=O)c1ccc(NC(=O)CSc2nc(N)cc(=O)[nH]2)cc1	-12%	12%	.	-3%
CC[C@@H]1C=C(C(=O)O)[C@H](c2ccc(Br)cc2)N1S(=O)(=O)c1ccc(C)cc1	-13%	-2%	.	5%
COc1ccc(OC)c(C=NNC(=O)c2ccccc2NS(=O)(=O)c2cccs2)c1	-18%	-6%	.	-2%
O=C(CN(C(=O)C1CSC(=O)C1)c1cccc(F)c1)NC1CCCC1 (stereo not drawn)	9%	-9%	.	-5%
CCOc1ccccc1OCCCC(=O)N1CCN(S(=O)(=O)c2ccc(Cl)cc2)CC1	0%	-3%	.	5%
CCOc1ccccc1N1CCN(C(=O)c2cc(S(=O)(=O)N3CCCCC3)ccc2C)CC1	?	-4%	.	0%
Cc1ccc(S(=O)(=O)N2CCN(C(=O)COC(=O)CCCOc3ccccc3)CC2)c(C)c1	-5%	6%	.	-2%
COc1ccc(C(=O)COC(=O)c2cnc(C)cn2)cc1OC	-13%	-2%	.	-2%
COC(=O)C1=C(c2ccc(Cl)c(C(F)(F)F)c2)C[C@@H]2CC[C@H]1N2C(=O)NC1CC1	-27%	-3%	.	0%
CC1CCCCC1NC(=O)c1cc(S(=O)(=O)N2CCCCC2)ccc1N1CCOCC1 (stereo not drawn)	34%[activator]	-10%	.	-16%
CCS(=O)(=O)Nc1cccc(C2=NN(S(=O)(=O)CC)C(c3ccccc3)C2)c1 (stereo not drawn)	15%	-4%	.	-4%
Cc1ccc(CN(C)C(=O)c2ccccc2NC(=O)c2ccccc2)o1	-20%	-7%	.	-15%
N#CCCN(C(=O)COC(=O)CNS(=O)(=O)c1ccc2ccccc2c1)c1ccccc1	-9%	-16%	.	3%
COc1ccc(NC(C)=O)cc1S(=O)(=O)NC(C)c1ccc(-n2ccnc2)cc1 (stereo not drawn)	-6%	11%	.	-4%
COc1ccc(-c2sc3cc(OC)ccc3c2-c2ccc(OCCN3CCOCC3)cc2)cc1	-23%	-15%	.	-63%
CN(C)S(=O)(=O)c1ccc(NC(=O)CSc2nnc(-c3ccco3)o2)cc1	-12%	6%	.	3%

Continuation:
SMILES	StopGo reporter	RE007 growth inh	LASV entry inh	SARS PLpro yeast
COc1cccc(-c2sc3ccccc3c2-c2ccc(OCCN3CCCC3)cc2)c1	?	-11%	.	-4%
COc1cc(OC)cc(-c2c(C#Cc3ccsc3)c3cc(-c4ccc(SC)cc4)ccc3n2C)c1	0%	-18%	.	-3%
CCC(C)CCN1CCN=C1N(C)C (stereo not drawn)	-7%	-8%	.	-7%
CSc1ccc(/C=C(\C(=O)O)c2ccc(S(=O)(=O)N3CCCC3)s2)cc1	-15%	2%	.	2%
CC(NC(=O)COC(=O)C1CC2CCCC(C1)C2=O)c1ccccc1 (stereo not drawn)	-2%	3%	.	4%
COc1ccc(-n2c(=O)c3ccccc3n(CC(=O)Nc3cccc(OC)c3)c2=O)cc1	-3%	6%	.	-3%
C=CCC[C@H](Cc1ccc(F)cc1)C(=O)OC[C@H](Cc1c[nH]c2ccccc12)NC(=O)[C@@H](CC=C)CC(=O)N[C@H](CO)Cc1ccccc1	?	-3%	.	-2%
CC[C@@]1(C(=O)OC)N[C@H](CN(C)C(=O)Nc2ccc(OC)cc2)[C@@H]2C(=O)N(C)C(=O)[C@@H]21	-7%	-5%	.	5%
O=C(N[C@@H]1C/C=C\C[C@@H](CC(=O)N(CCO)Cc2ccccc2)C(=O)N[C@@H](c2ccccc2)COC1=O)OCC1c2ccccc2-c2ccccc21	-8%	-2%	.	-14%
COC(=O)c1ccc(NC(=S)N2CCCC2)cc1	31%	-9%	.	3%
Cc1ccc(C(=O)NC(Cc2ccccc2C(F)(F)F)C(=O)O)cc1 (stereo not drawn)	-4%	-3%	.	-14%
CN(C)S(=O)(=O)c1ccc(C(=O)N2CCN=C2SCc2ccccc2)cc1	-14%	-8%	.	-1%
Cc1ccc(NC(=O)c2nc[nH]c2C(=O)NCCCCCCNC(=O)c2[nH]cnc2C(=O)Nc2ccc(C)cc2)cc1	-18%	0%	.	13µM*
Cc1ccc(S(=O)(=O)NCc2ccc3[nH]c(C)cc3c2)cc1	18%	-5%	.	-4%
Cc1cnc(C(=O)OCC(=O)c2cc(C)n(C)c2C)cn1	14%	-15%	.	0%
CCOc1ncccc1C(=O)Nc1cc(S(=O)(=O)N2CCCCC2)ccc1C	-23%	-7%	.	3%
O=S(=O)(c1ccc(SCc2ccccc2)nc1)N1CCCCCC1	12%	8%	.	-2%
C[C@H](CO)N1C[C@H](C)[C@@H](CN(C)C)Oc2c(NS(=O)(=O)c3cccs3)cccc2C1=O	33%[activator]	3%	.	1%
Fc1ccc2cnc(-c3ccccc3)c(-c3cc(C(F)(F)F)cc(C(F)(F)F)c3)c2c1	?	-1%	.	-4%
c1nc(C2CCCCC2)cc2cc3c(cc12)OCO3	55%[activator]	?	.	-2%
Cc1nn(CC(=O)NC2CCCC2)c(C)c1[N+](=O)[O-]	-10%	7%	.	5%
Cc1cn([C@H](C(=O)NCCCCCCCCCCC(=O)N2CCNCC2)[C@@H](C)O)nn1	-1%	43%	.	1%
COC(=O)C1=C(c2ccc(OC)c(OC)c2)C[C@@H]2CC[C@H]1N2C(=O)NCc1ccco1	35%[activator]	-12%	.	3%
CCc1ccccc1OCC(=O)Nc1ccc(C)c(S(=O)(=O)N2CCCCCC2)c1	?	1%	.	3%
COc1ccc2c(c1)OC[C@H]1[C@H]2N2C(=O)CN(C)C(=O)[C@@]2(C)[C@H]1c1ccccc1	-13%	4%	.	0%

Part of the list above, showing only SARS PLpro yeast and RE007 growth inh.
structure,SARS PLpro yeast,RE007 growth inh
c1nc(C2CCCCC2)cc2cc3c(cc12)OCO3,-2%,?
COc1ccc(-n2c(=O)c3ccccc3n(CC(=O)Nc3cccc(OC)c3)c2=O)cc1,-3%,6%

(cont.)
SMILES	StopGo reporter	RE007 growth inh	LASV entry inh	SARS PLpro yeast
Cc1ccc2nc(SCC(=O)NC3CCS(=O)(=O)C3)[nH]c2c1 (stereo not drawn)	-11%	2%	.	1%
O=C(C[C@@H]1C/C=C\C[C@H](NC(=O)OCC2c3ccccc3-c3ccccc32)C(=O)OC[C@@H]2CCCN2C1=O)N[C@H](CO)Cc1ccccc1	-16%	-11%	.	-12%
CCN(CC(=O)NCc1ccc(F)cc1)C(=O)COc1ccccc1[N+](=O)[O-]	-7%	12%	.	3%
CC1(C)O[C@@H]2[C@H](O1)[C@@H](COS(=O)(=O)O)O[C@H]2n1ccc(=O)[nH]c1=O	-14%	8%	.	2%
O=C(NCC(c1ccco1)N1CCOCC1)c1cccc([N+](=O)[O-])c1 (stereo not drawn)	-7%	-1%	.	2%
Cc1ccccc1NC(=O)COC(=O)CCc1c[nH]c2ccccc12	-15%	-3%	.	-6%
CCc1cccc(C)c1NC(=O)CCN1C(=O)NC(C)(C)C1=O	-10%	-3%	.	-5%
COc1ccc(OC)c(NC(=O)CN2C(=O)C(=O)N(Cc3ccccc3)C2=O)c1	-1%	1%	.	3%
COCCNC(=S)Nc1ccc(N2CCOCC2)c(S(=O)(=O)Nc2ccccc2OC)c1	102%[activator]	7%	.	-4%
O=C(c1ccc(F)cc1)N1CCCC(c2nc(-c3cccs3)no2)C1 (stereo not drawn)	-13%	9%	.	0%
O=C1[C@H]2C(c3ccccc3)=NN(c3ccccc3)[C@H]2C(=O)N1c1ccccc1	-6%	-1%	.	1%
Cc1ccc(NC(=O)c2ccc(=O)[nH]n2)cc1S(=O)(=O)Nc1ccccc1Cl	41%[activator]	-3%	.	2%
COc1ccc(N2CCN(C(=O)CN3C(=O)NC4(CCCCCC4)C3=O)CC2)cc1	0%	-3%	.	1%
CCS(=O)(=O)c1ccc2oc(SCC(=O)Nc3ccc(OC)cc3OC)nc2c1	9%	0%	.	-1%
COc1ccc(-c2sc3cc(OC)c(OC)cc3c2C#CC2(O)CCCCC2)cc1	-21%	-9%	.	-6%
CCOc1ccc(NC(=O)CN(C)C(=O)Cc2n[nH]c(=O)c3ccccc23)cc1OCC	-10%	8%	.	-4%
CSc1nnc2ccc(-c3ccccn3)nn12	-4%	0%	.	-3%
O=C(O)c1ccc(Cl)c(N2C(=O)Nc3ccccc3N2O)c1	9%	0%	.	0%
COc1ccc(NC(=O)CSc2nc3ccccc3c(=O)n2CCCO)cn1	-14%	9%	.	-1%
COc1ccccc1C(=O)Nc1ccc(OCC(=O)N2CCCCC2)cc1	25%	4%	.	-33%
CC(=O)Nc1ccc(S(=O)(=O)Nc2ccc(N3CCCCC3)cc2)cc1	?	-4%	.	2%
CC(C)(C)c1cc(-c2nc(N)nc(N)n2)c(O)c(C(C)(C)C)c1	?	?	.	2%
O=C(CSc1nc2cc(Cl)ccc2o1)NC1CC1	14%	7%	.	0%
O=S1(=O)c2c(F)cccc2O[C@@H](COCc2ccccc2)CN1CCc1ccc(F)cc1	-28%	-6%	?	.
O=C(Nc1cccc(C(=O)N2CCOCC2)c1)C1CC1	-3%	2%	8%[46.1 µM]	.

Later entries:
SMILES	StopGo reporter	RE007 growth inh	LASV entry inh	SARS PLpro yeast
CCCCN1CC(CO)Oc2cccc(F)c2S1(=O)=O (stereo not drawn)	-11%	-1%	?	.
CC1C(=O)N(Cc2cn(CCC3OCCCO3)nn2)CCS(=O)(=O)N1Cc1ccc(-c2ccc(F)nc2)cc1 (stereo not drawn)	-21%	-6%	-2%[46.1 µM]	.
COCOCCn1cc(CN2CCS(=O)(=O)N(Cc3ccc(-c4ccc(Cl)cc4)cc3)C(CC(C)C)C2=O)nn1 (stereo not drawn)	?	28%	?	.
COc1ccc2c(CN3CCCCCCC3)cc(=O)oc2c1	0%	-27%	?	.
O=C(C[C@H]1C(=O)N(Cc2ccccc2)C[C@@H]1Cc1ccccc1)Nc1ccc(Br)cc1	27%	-9%	?	.
Cn1ccc2c(N3CCCCC3)cc3c(c21)C1CCC3C1 (stereo not drawn)	-4%	-27%	2%[46.1 µM]	.
COc1ccc(N2C[C@H](CSC)[C@@H](CC(=O)Nc3ccc(Br)cc3)C2=O)cc1	11%	-21%	-12%[46.1 µM]	.
O=c1cc(CN(Cc2ccccc2)Cc2ccccc2)c2c(ccc3ccccc32)o1	-17%	10%	10%[46.1 µM]	.
CN1CCC(N2CCN(C3CN(C4CCCC4)S(=O)(=O)C3)CC2)CC1 (stereo not drawn)	-11%	-9%	3%[46.1 µM]	.
COCCN(CCOC)Cc1cc(=O)oc2cc(OC)ccc12	-4%	4%	27%[46.1 µM]	.
CC(C)(C)OC(=O)N1CCCC(C(=O)Nc2ccc(C(=O)NCc3ccccc3)cc2)C1 (stereo not drawn)	-27%	-2%	?	.
COc1ccc([C@H]2C[C@@H](n3cc(COC(=O)c4ccccc4)nn3)[C@H](O)CN2C(=O)c2cccs2)cc1	3%	5%	-4%[46.1 µM]	.
CCCCCCCCNS(=O)(=O)CCNCc1ccccc1OC	-27%	7%	?	.
CNC(=O)C[C@H]1C(=O)N(c2ccc(OC)cc2)C[C@@H]1C	-4%	-1%	?	.
Cc1cc2oc(=O)cc(CN(Cc3ccccc3)Cc3ccccc3)c2cc1Cl	-27%	1%	1%[46.1 µM]	.
COc1cccc(C2=CC(=O)C(C(C)(C)C)N2C(C)(C)C)c1 (stereo not drawn)	-29%	8%	?	.

This is a subset, so the mix of outcomes need not match the whole.
